Screening results (PubChem BioAssay)
Marburg entry inh: inhibitors of Marburg virus binding or cell entry | 300,000 tested, 1.8% active | AID 540276 | Potency, µM (series often up to 37.8 µM), inactives show at the top dose activity change, negative = inhibition, usual class: inhibitors | Marburg virus pseudotyped entry inhibition, cell reporter; control for the full effect not named in the record; about a third of the inactives were read at about 46 µM; active = well fitted inhibition curve with a large enough effect; inconclusive = small, poorly fitted or top-dose-only effect, or effect the other way; inactive = flat fitted curve, though single readings scatter; tested in HEK293 cells; about a fifth of its hits are not listed in these tables; also: % is scaled to controls: 0 for no effect and ±100 for the full control effect; luciferase read-out
LASV entry inh: Lassa virus entry inhibition. 300,000 tested, 1.2% active. Potency, µM (top dose mostly 37.9 µM), for the others: top-dose activity change, negative = inhibition, usual class: inhibitors. Lassa virus pseudotype entry inhibition, cell reporter; control for the full effect not named in the record; active means well fitted inhibition curve with a large enough effect; inconclusive means small, poorly fitted or top-dose-only effect, or effect the other way; inactive means flat fitted curve, though single readings scatter; tested in HEK293 cells; also: % is scaled to controls: 0 for no effect and ±100 for the full control effect; nearly all actives have a fitted effect of over 50% in size; luciferase read-out
Cruzain noTriton: blocks cruzain activity in detergent-free assay; P25779; purified cruzain, Z-FR-AMC fluorescence, no detergent; Potency, µM, for the others: max response, negative = inhibition, most hits filed as inhibitors; 200,000 tested, 2.3% active; AID 1476; active = well fitted curve in the direction sought with a large enough effect; inconclusive = small, poorly fitted or top-dose-only effect, or another doubt; inactive = no such curve, though single readings can be large; an effect the other way counts as inactive or inconclusive;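 also: plate controls were enzyme without inhibitor for no effect and buffer without enzyme for full effect; nearly all actives have a fitted effect of over 40% in size; top concentration of the series not given in the record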
Target sequence (P25779 123-467 limits assumed): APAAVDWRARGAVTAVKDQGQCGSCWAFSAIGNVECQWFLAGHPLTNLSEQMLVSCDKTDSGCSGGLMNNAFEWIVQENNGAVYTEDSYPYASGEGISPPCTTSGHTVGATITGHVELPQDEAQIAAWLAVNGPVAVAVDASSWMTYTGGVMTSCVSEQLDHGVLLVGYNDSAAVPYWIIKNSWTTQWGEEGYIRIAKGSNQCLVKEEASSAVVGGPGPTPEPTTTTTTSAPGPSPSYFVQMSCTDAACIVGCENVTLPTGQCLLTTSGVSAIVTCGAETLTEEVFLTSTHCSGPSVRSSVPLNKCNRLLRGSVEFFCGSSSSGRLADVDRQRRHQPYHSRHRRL
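Purified cruzain at 1.5 nM, pre-incubated 15 min with compound at room temperature in 100 mM sodium acetate pH 5.5, 5 mM DTT, 0.00005% Triton X-100. Reaction started with 2 uM Z-FR-AMC; AMC fluorescence increase over 60 s gives rate.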
NS1 inh: influenza NS1 inhibition | S. cerevisiae slowed by influenza A NS1, growth recovery by OD600 | Potency, µM (top dose mostly 46.1 µM), without a hit: at the highest dose activity, positive = more growth | 270,000 tested, 0.4% active; also: actives are rising curves; nearly all actives have a fitted effect of over 50% in size
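Growth recovery, yeast-based: influenza A NS1 expressed in S. cerevisiae causes slow growth, and suppressors are detected by OD600. The parent strain without NS1 is used as positive control.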
2A StopGo: lowers the luciferase signal of an FMDV 2A StopGo reporter; human cells with a luciferase reporter of 2A StopGo recoding; control for the full effect not named in the record; Potency, µM (top dose mostly 57.9 µM), inactives show at the highest dose signal change, negative = less light; 410,000 tested, 1.2% active; active = well fitted falling curve with a large enough effect; inconclusive = small, poorly fitted or top-dose-only effect; inactive = no such curve, though single readings can be large or run the other way; tested in HEK293T cells; also: % is scaled to controls: 0 for no effect and ±100 for the full control effect; nearly all actives have a fitted effect of over 45% in size; luciferase light after 4 h
SARS PLP yeast: SARS-CoV PLP inhibition in yeast. S. cerevisiae expressing SARS-CoV PLpro, growth rescue; control for the full effect not named in the record. Potency, µM (series often up to 32.9 µM), without a hit: at the highest dose activity, positive = growth rescue. 330,000 tested, 0.19% active. AID 485353; also: 0% is about no effect; nearly all actives have a fitted effect of over 55% in size; growth read by luminescence after 48 h
Cruzain Triton: cruzain (T. cruzi) inhibition with detergent | 200,000 tested, 0.43% active | P25779 | purified cruzain, Z-FR-AMC fluorescence, 0.01% Triton | Potency, µM, for the others: max response, negative = inhibition, actives largely listed as inhibitors; active = well fitted curve in the direction sought with a large enough effect; inconclusive = small, poorly fitted or top-dose-only effect, or another doubt; inactive = no such curve, though single readings can be large; an effect the other way counts as inactive or inconclusive;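 also: plate controls were neutral wells for no effect and buffer without enzyme for full effect; nearly all actives have a fitted effect of over 40% in size; top concentration of the series not given in the record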
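Cruzain (1.5 nM) preincubated 15 min at RT with compound in 100 mM sodium acetate pH 5.5, 5 mM DTT, 0.01% Triton X-100. Reaction started with 2 uM Z-FR-AMC; AMC fluorescence (ex 360/em 450 nm) change over 60 s gave rate.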
RE007 growth inh: less growth of the S. pombe RE007 Vpr strain | Potency, µM (highest dose often 92.2 µM), for the others: at the highest dose activity change, negative = less growth | 360,000 tested, 0.21% active | S. pombe RE007 Vpr strain, BacTiter-Glo ATP luminescence, 24 h; control for the full effect not named in the record | AID 651644; active = well fitted falling curve with a large enough effect; inconclusive = small, poorly fitted or top-dose-only effect; inactive = no such curve, though single readings can be large or run the other way;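 also: % is scaled to controls: 0 for no effect and ±100 for the full control effect; nearly all actives have a fitted effect of over 50% in size; the assay follows cell death caused by Vpr and the record does not say whether a fall means rescue or toxicity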
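Fission yeast strain RE007, carrying one chromosomally integrated HIV-1 vpr copy, was seeded at OD 0.01 in PMG+AL medium with 23 nL pinned compound. After 24 h at 30 °C and 99% humidity, viability was read by BacTiter-Glo luminescence.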
Starred values were filed as active, the others as inactive; [ ] = another dose, or the depositor's remark. Unless noted, calls follow the shape of the dose curve; as a rule, active means well fitted rising curve with a large enough effect; inconclusive means small, poorly fitted or top-dose-only effect; inactive means no such curve, though single readings can be large or run the other way. Potency is read from the fitted curve at half-maximal effect.

Screening CCOC(=O)c1ccc2c(c1)NCc1cccc(OC)c1O2 returned NS1 inh -34%, 2A StopGo 61%[activator], SARS PLP yeast -5% and RE007 growth inh -11%.
For O=C(CSc1ccccn1)c1ccc(F)cc1 the results were Marburg entry inh 1%, LASV entry inh 18%, Cruzain noTriton -5%, NS1 inh 2%, SARS PLP yeast 24%, Cruzain Triton 2.6% and RE007 growth inh -19%.
Screening CC1=CC(C)(C)N(C(=O)c2ccccc2)c2ccccc21 returned Marburg entry inh 5%, LASV entry inh 6%, Cruzain noTriton 3%, 2A StopGo -23%, SARS PLP yeast -17%, Cruzain Triton -4.4% and RE007 growth inh -9%.
Screening CN(C)N1C(N)=C(C#N)C(c2ccc(F)cc2)C2=C1CC(C)(C)CC2=O (stereo unspecified) returned Marburg entry inh -12%[46.1 µM], LASV entry inh -5%[46.1 µM], NS1 inh 2%, 2A StopGo 9%, SARS PLP yeast 1% and RE007 growth inh -5%.
CN(C)Cc1nc2ccccc2c(=O)n1Cc1nc(-c2cc3ccccc3o2)cs1 was read as Marburg entry inh 11µM*, LASV entry inh -2%, Cruzain noTriton -6%, NS1 inh 2%, 2A StopGo -28%, SARS PLP yeast 18%, Cruzain Triton -8.1% and RE007 growth inh 10%.
Cc1ccc(CN2CC(C(=O)N3CCN(S(=O)(=O)c4ccc(C(C)C)cc4)CC3)CC2=O)cc1 (stereo unspecified) was read as Marburg entry inh inconclusive, LASV entry inh inconclusive, 2A StopGo -27%, SARS PLP yeast -1% and RE007 growth inh 4%.
Screening COC(=O)Cc1ccc(NC(=S)NCc2ccc(OC)cc2)cc1 returned Marburg entry inh 0%[46.1 µM], LASV entry inh -4%, NS1 inh 4%, 2A StopGo 0%, SARS PLP yeast 1% and RE007 growth inh -2%.
Screening CC(=O)N(/N=C1\Sc2ccccc2C1=O)c1ccc(C)cc1C returned Marburg entry inh inconclusive, LASV entry inh 10µM*, Cruzain noTriton -5%, NS1 inh 4%, 2A StopGo inconclusive, SARS PLP yeast -16%, Cruzain Triton -3.0% and RE007 growth inh -15%.
For CCc1ccc(OCc2nc(-c3ccccn3)no2)c(Br)c1 the results were Marburg entry inh inconclusive, LASV entry inh inconclusive, Cruzain noTriton 3%, NS1 inh -95%, SARS PLP yeast -19%, Cruzain Triton -9.7% and RE007 growth inh -24%.
`NCCOc1ccccc1OCCN` gave Marburg entry inh 13%, LASV entry inh inconclusive, NS1 inh 0%, 2A StopGo -11%, SARS PLP yeast -2% and RE007 growth inh -1%.
Screening COc1cc(CN2CCCC(C(=O)c3ccccc3SC)C2)cc(OC)c1 (stereo unspecified) returned NS1 inh 7%, 2A StopGo -16%, SARS PLP yeast 1% and RE007 growth inh -9%.
`Cc1ccc(/C=N/NC(=O)Cn2nc(C)c([N+](=O)[O-])c2C)o1` gave Marburg entry inh 13%, LASV entry inh 9%, NS1 inh -4%, 2A StopGo -7%, SARS PLP yeast 7% and RE007 growth inh 29%.
Screening CCc1nnc(NC(=O)CSc2nc(C)cc(C)c2C#N)s1 returned Marburg entry inh 7.9µM*, LASV entry inh inconclusive, 2A StopGo -9%, SARS PLP yeast -2% and RE007 growth inh -5%.
For Cc1nc2ccccc2n1CCc1nc2c3ccccc3nc(SCc3ccccc3F)n2n1 the results were LASV entry inh 1%[46.1 µM], Cruzain noTriton 2%, 2A StopGo 0% and Cruzain Triton 1.5%.
Screening Cc1c(N2C(=O)/C(=C3/C(=O)N(C)c4ccccc43)SC2=S)c(=O)n(-c2ccccc2)n1C returned Marburg entry inh -3%, LASV entry inh inconclusive, Cruzain noTriton -1%, NS1 inh -12%, 2A StopGo -21%, SARS PLP yeast -7%, Cruzain Triton -0.2% and RE007 growth inh -22%.
`COc1ccc(C(=O)Nc2ccccc2C(=O)N/N=C/c2ccccc2OC)cc1` gave Marburg entry inh 2%, LASV entry inh 5%, Cruzain noTriton 25µM*, NS1 inh 17%, 2A StopGo -29%, SARS PLP yeast -26%, Cruzain Triton -4.9% and RE007 growth inh 35µM*.
`Cc1cccc(S(=O)(=O)Nc2cccc3c2C(=O)c2ccccc2-3)c1` gave Marburg entry inh -18%, LASV entry inh -18%, Cruzain noTriton -4%, NS1 inh 0%, 2A StopGo 8%, SARS PLP yeast 3%, Cruzain Triton 2.7% and RE007 growth inh -6%.
Screening Cc1ccc(S(=O)(=O)NCCC(=O)Nc2cc(S(=O)(=O)N(C)C)ccc2C)cc1C returned Marburg entry inh -2%[46.1 µM], LASV entry inh 0%[46.1 µM], NS1 inh 7%, 2A StopGo 16%, SARS PLP yeast 2% and RE007 growth inh -2%.
`COc1ccc(-c2cc3ccc(O)c(CN4CCCCC4C)c3oc2=O)cc1OC` (stereo unspecified) gave LASV entry inh 15%[46.1 µM], Cruzain noTriton -2%, 2A StopGo 13% and Cruzain Triton 1.7%.
Cc1cc(=O)[nH]c(Nc2ccc(N(C)C)cc2)n1 was read as NS1 inh 8%, 2A StopGo 9%, SARS PLP yeast -4% and RE007 growth inh 4%.

As a short view, 2 of the compounds above.
Screening CCOC(=O)c1ccc2c(c1)NCc1cccc(OC)c1O2 returned NS1 inh -34%, 2A StopGo 61%[activator], SARS PLP yeast -5% and RE007 growth inh -11%.
For O=C(CSc1ccccn1)c1ccc(F)cc1 the results were Marburg entry inh 1%, LASV entry inh 18%, Cruzain noTriton -5%, NS1 inh 2%, SARS PLP yeast 24%, Cruzain Triton 2.6% and RE007 growth inh -19%.

Other results follow:
`O=C(c1ccccc1[N+](=O)[O-])N1CCN(c2ccc(N3CCOCC3)nn2)CC1` gave Marburg entry inh inconclusive, LASV entry inh 3%[46.1 µM], 2A StopGo -7%, SARS PLP yeast -3% and RE007 growth inh -19%.
For CN1C[C@@H]2C(c3ccccc3)C3(c4ccccc4)CC2(C3)[C@H]1c1ccccc1 (stereo partly specified) the results were Cruzain noTriton -8%, NS1 inh 7%, 2A StopGo -17%, SARS PLP yeast 2%, Cruzain Triton 3.6% and RE007 growth inh -11%.
Cn1c(=O)c2c(ncn2CC(=O)Nc2ccc(N3CCOCC3)cc2)n(C)c1=O was read as Marburg entry inh -9%, LASV entry inh 6%, Cruzain noTriton -5%, NS1 inh -3%, 2A StopGo 0%, Cruzain Triton 4.6% and RE007 growth inh 13%.
O=C(CCS(=O)(=O)c1ccccc1)Nc1nc(-c2cccs2)cs1 was read as Marburg entry inh inconclusive, LASV entry inh -29%, Cruzain noTriton -14%, NS1 inh -2%, 2A StopGo -30%, SARS PLP yeast -10%, Cruzain Triton -3.6% and RE007 growth inh -13%.
`Cc1cc(NC(=O)CSc2nnnn2-c2cc(Cl)ccc2C)no1` gave Marburg entry inh -14%[46.1 µM], LASV entry inh 6%[46.1 µM], NS1 inh 0%, 2A StopGo 4%, SARS PLP yeast 2% and RE007 growth inh 2%.
O=c1cc(C(F)(F)F)[nH]c(=O)n1C1CCCCC1 was read as Marburg entry inh inconclusive, LASV entry inh 4%, Cruzain noTriton 0%, NS1 inh -40%, 2A StopGo -10%, SARS PLP yeast -34%, Cruzain Triton 13% and RE007 growth inh inconclusive.
For CCN(C(=O)COC(=O)c1cc(-c2ccc3cc(OC)ccc3c2)nc2ccccc12)C1CCS(=O)(=O)C1 (stereo unspecified) the results were Marburg entry inh -20%, LASV entry inh -2%, Cruzain noTriton inconclusive, NS1 inh 0%, SARS PLP yeast 16% and Cruzain Triton -7.5%.
COC(=O)C1=C(C(=O)OC)[C@@H]2N(Cc3ccccc3)c3ccccc3[C@@]23C[C@@H](C(=O)OC)N(C(=O)c2ccc(Br)cc2)C3=N1 was read as NS1 inh 11%, 2A StopGo inconclusive, SARS PLP yeast -5% and RE007 growth inh -7%.
For c1ccc(CCn2nnnc2C(c2cccnc2)N2CCN(c3ccccc3)CC2)cc1 (stereo unspecified) the results were Marburg entry inh inconclusive, LASV entry inh inconclusive, Cruzain noTriton 20%, NS1 inh -57%, SARS PLP yeast -30%, Cruzain Triton 1.5% and RE007 growth inh -4%.
c1ccc(SCCOCCN2CCc3ccccc3C2)cc1 was read as Marburg entry inh -38%, LASV entry inh 11%, Cruzain noTriton 1%, NS1 inh -19%, 2A StopGo -3%, SARS PLP yeast -7%, Cruzain Triton 2.3% and RE007 growth inh 5%.
O=[N+]([O-])c1ccc(C(=Nc2ccccc2)N2CC2)cc1 was read as Marburg entry inh -3%, LASV entry inh 3%, 2A StopGo 15% and RE007 growth inh -10%.
For CCc1nc(SCC(=O)NCCc2ccccc2)c2oc3ccccc3c2n1 the results were Marburg entry inh inconclusive, LASV entry inh -12%, Cruzain noTriton -4%, NS1 inh -51%, 2A StopGo 7%, SARS PLP yeast 1%, Cruzain Triton -6.1% and RE007 growth inh 8%.
Screening Cc1noc(C)c1S(=O)(=O)Nc1ccc(C(=O)Nc2ccc(OC(F)(F)F)cc2)cc1 returned Marburg entry inh -1%, NS1 inh 24%, 2A StopGo -20%, SARS PLP yeast 1% and RE007 growth inh -2%.
For COc1cc(C(=O)Nc2ccc3c(c2)CCN3C(C)=O)cc(OC)c1OC the results were Marburg entry inh inconclusive, LASV entry inh inconclusive, 2A StopGo 10%, SARS PLP yeast 1% and RE007 growth inh -18%.
CCOC(=O)c1c(NC(=O)CSc2nnc(-c3ccncc3)n2Cc2ccco2)sc(C(C)=O)c1C was read as Marburg entry inh 8%, LASV entry inh 3%, 2A StopGo -22% and RE007 growth inh -16%.
For CCCn1ncc(CN2CCC(CO)(CC3CCCCO3)CC2)c1C (stereo unspecified) the results were Marburg entry inh 3%[46.1 µM], LASV entry inh -2%, NS1 inh 1%, 2A StopGo 32%[activator], SARS PLP yeast 0% and RE007 growth inh -8%.
For O=C(Cc1cccs1)Nc1nc(-c2cccnc2)cs1 the results were NS1 inh 3%, 2A StopGo -21%, SARS PLP yeast 0% and RE007 growth inh 1%.
